AF4-AF9 inh: inhibitors of AF4 peptide binding to AF9, primary screen, biochemical, AlphaScreen, biotin-AF4 peptide, FLAG-AF9, single point; Protein AF-9 (Homo sapiens), P42568; hit rate 0.47% among 350,000; inhibition, % at 10 µM; AID 651704, 2012;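 active = every replicate reaching a set inhibition limit, whatever the replicate mean, cut at about 25% in these data; inconclusive = mean inhibition reaches that limit but some replicates miss it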;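 also: 0% = plate neutral control median and 100% = total signal loss; the record names both 10 and 1 µM as test concentration; the first replicate is given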
Target sequence (P42568 whole entry, looked up): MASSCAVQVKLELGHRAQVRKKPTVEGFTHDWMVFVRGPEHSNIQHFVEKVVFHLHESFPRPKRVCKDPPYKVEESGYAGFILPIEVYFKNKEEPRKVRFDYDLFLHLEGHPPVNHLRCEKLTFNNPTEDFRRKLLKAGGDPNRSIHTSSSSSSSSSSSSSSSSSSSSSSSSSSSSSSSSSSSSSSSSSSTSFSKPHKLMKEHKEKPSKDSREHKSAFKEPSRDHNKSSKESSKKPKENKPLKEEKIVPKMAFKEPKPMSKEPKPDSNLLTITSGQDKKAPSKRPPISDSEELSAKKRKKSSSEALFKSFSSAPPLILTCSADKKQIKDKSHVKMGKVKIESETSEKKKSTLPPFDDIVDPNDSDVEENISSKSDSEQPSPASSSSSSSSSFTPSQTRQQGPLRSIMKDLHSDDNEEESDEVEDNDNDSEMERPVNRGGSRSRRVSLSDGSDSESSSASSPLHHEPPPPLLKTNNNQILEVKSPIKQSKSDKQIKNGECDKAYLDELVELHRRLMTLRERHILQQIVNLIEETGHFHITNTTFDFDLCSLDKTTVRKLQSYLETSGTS
E coli growth: E. coli growth inhibition, primary screen, OD600; Escherichia coli growth, 23 h; stronger effect = lower value; OD600 absorbance (concentration not given with the values); hit rate 0.21% among 330,000;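 active = OD600 absorbance below the run mean of sample wells minus 3.6 SD, in any replicate, cut at about 0.56 in these data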;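 also: stock transfer was 300 nL into about 60 µL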
ALR H2O2 inh: inhibitors of human ALR sulfhydryl oxidase, primary screen, biochemical, H2O2 detection, HRP-luminol luminescence, single point; purified ALR, DTT oxidation; inhibition, % (test concentration not listed); AID 485317, 2010; FAD-linked sulfhydryl oxidase ALR (Homo sapiens), P55789; hit rate 3.8% among 290,000;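 active = mean and each replicate at 75% or more; inconclusive = only one of the two met; inactive = neither met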;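 also: stock transfer was 7.5 nL into about 7.5 µL; 0% = neutral wells and 100% = wells with inactivated enzyme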
Vif TR-FRET: inhibitors of Vif binding to APOBEC3G peptide, primary screen, biochemical, TR-FRET, GST-Vif 1-94, biotin-A3G peptide, dose response retest (AID 1117319); Virion infectivity factor (Human immunodeficiency virus type 1 group M subtype B (isolate …; TR-FRET GST-Vif / biotin-A3G peptide binding; higher % means a stronger effect; test concentration not given here; strong numbers were not always called active; inhibition, %, or IC50 in µM where a hit was titrated; hit rate 0.57% among 260,000;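 active = above the screen mean plus three standard deviations and confirmed in dose response; inconclusive = results disagree or hit not tested in dose response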;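 also: Vif residues 1-94 fused to GST binding biotinylated APOBEC3G peptide 110-148; 0% = full assay without inhibitor and 100% = GST in place of GST-Vif; retest series ran down from 100 µM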
rRNA inh HTS: reduced GFP signal of wild-type E. coli, primary screen, bacterial rRNA inhibitor project, GFP/RFP fluorescence, OD600, single point. E. coli WT GFP vs humanized-ribosome RFP mutants, 24 h; stronger effect = lower value; DMSO median 0, no signal -100. GFP signal change (wild-type ribosome), % (test concentration not listed). hit rate 1.6% among 350,000;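 active = significant combined selectivity score with lowered wild-type GFP, culture density cut under 30%, mutant RFP and density less affected; inactive = any of these conditions unmet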; also: one replicate is shown; some compounds called inactive have numbers as strong as hits
FGF22 binding: binders of human FGF22 protein, primary screen, FGF22 synaptogenesis inhibitor project, biophysical, thermal shift, single point. Fibroblast growth factor 22 (Homo sapiens), Q9HCT0. recombinant FGF22 thermal shift, SYPRO orange fluorescence; percent of sucrose octasulfate shift, DMSO zero. calls only at 9.99 µM. hit rate 1.5% among 340,000. AID 651658, 2012;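 active = melting point raised past a set limit in the mean and every replicate; inconclusive = no clear call; three in four hits are not shown here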
HNF4A DNA FP: change in binding of human HNF4A to DNA, primary screen, biochemical, fluorescence polarization, FITC-DNA; hit rate 0.3% among 360,000; activity change, % at 10 µM; 1 h; in the data active = activity change above about 30%, passing the limit was not always enough;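 also: controls were the assay level and a saturating level of protein; the project sought stronger binding though the title names inhibitors; some compounds called inactive have numbers as strong as hits; positive values seem to mean higher polarization but the record does not say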
Target sequence (P41235 whole entry, looked up): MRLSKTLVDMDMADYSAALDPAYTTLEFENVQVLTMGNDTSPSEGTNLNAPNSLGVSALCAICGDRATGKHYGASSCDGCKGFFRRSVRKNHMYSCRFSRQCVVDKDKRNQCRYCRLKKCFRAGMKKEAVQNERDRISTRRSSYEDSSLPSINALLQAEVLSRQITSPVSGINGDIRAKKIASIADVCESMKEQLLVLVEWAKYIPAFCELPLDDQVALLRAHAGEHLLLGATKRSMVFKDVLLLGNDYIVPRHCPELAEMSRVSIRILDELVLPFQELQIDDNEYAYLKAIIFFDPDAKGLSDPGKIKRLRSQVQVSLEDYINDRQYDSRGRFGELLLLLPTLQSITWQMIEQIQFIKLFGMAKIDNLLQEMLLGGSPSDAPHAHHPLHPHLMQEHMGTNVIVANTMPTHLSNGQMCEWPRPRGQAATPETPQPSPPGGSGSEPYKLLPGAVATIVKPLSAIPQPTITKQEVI
rRNA inh HTS OD600: second read-out of rRNA inh HTS, no call of its own (marks repeat the call); OD600 change, %; measured here: OD600 growth;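 optical density of the mix in the first replicate; 0 = DMSO median and -100 = no signal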
rRNA inh HTS RFP: further read-out of rRNA inh HTS, marked with its call; RFP signal change, %; measured here: RFP humanized mutant strains;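 first replicate; 0 = DMSO median and -100 = no signal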
* hit, by the source's call; i = inactive; ? = inconclusive; . = not tested or not shown.

mol	FGF22 binding	ALR H2O2 inh	rRNA inh HTS OD600	rRNA inh HTS	Vif TR-FRET	rRNA inh HTS RFP	HNF4A DNA FP	AF4-AF9 inh	E coli growth
O=S(=O)(NCc1nnc2ccccn12)c1ccc(Cl)cc1	i	3.9	10.1	4.0	2.0%	-0.6	-0.6	0.7	0.709
NC(=O)Cn1c(=O)n(CCc2ccccc2)c(=O)c2c3c(sc21)CCCC3	.	-2.0	.	.	-0.5%	.	1.1	.	0.634
CCN1CCN(c2ccc(S(=O)(=O)N3CCOCC3)cc2NC(=O)c2cc(F)c(F)c(F)c2F)CC1	i	.	11.8	8.4	-3.5%	0.9	1.4	-1.4	.
O=c1oc(-c2cccs2)nc2ccc(Cl)cc12	i	44.4	-38.0	-22.1	.	-6.8	0.9	-0.5	0.67
CC(=O)NC(C)C12CC3CC(CC(CC(=O)O)(C3)C1)C2 (stereo not drawn)	.	6.5	.	.	4.1%	.	1.7	.	0.669
O=C(NNS(=O)(=O)c1ccccc1C(F)(F)F)c1cc2ncc(C(F)(F)F)cc2s1	i	17.3	-36.9	-18.0	-2.0%	-3.7	1.2	.	0.645
COc1ccc(/C(O)=C2/C(=O)C(=O)N(CCCN3CCOCC3)C2c2ccc(N(C)C)cc2)cc1 (stereo not drawn)	i	20.9	6.4	10.6	.	0.3	1.5	6.1	0.71
Cc1ncsc1CCOC(=O)C12CC3CC(CC(C3)C1)C2	.	-17.8	.	.	1.5%	.	4.0	.	0.67
COC(=O)c1ccccc1NC(=O)c1nc2nc(C)cc(C(F)F)n2n1	.	-1.2	.	.	4.0%	.	0.6	.	0.777
Cc1nn(-c2cccc(Cl)c2)c2nc(-c3ccncc3)cc(C(=O)N3CCOCC3)c12	i	-4.0	10.7	11.3	3.3%	-3.6	-3.4	1.8	0.699
Nn1c(SCc2cn3ccsc3n2)nnc1-c1ccncc1	.	-2.9	.	.	2.2%	.	-0.7	.	0.708
C[C@@H]1CN([C@@H](C)CO)C(=O)c2cc(NC(=O)C3CC3)ccc2O[C@H]1CN(C)Cc1ccc(-c2ccccc2)cc1	i	.	-13.6	-0.4	.	4.8	.	9.0	.
C[C@H](CO)N1C[C@H](C)[C@H](CN(C)S(C)(=O)=O)Oc2ccc(N(C)C)cc2CC1=O	i	.	6.5	4.1	.	1.2	.	-1.4	.
COc1cccc(-c2cnc(C(O)c3c(C)cccc3C)[nH]2)c1 (stereo not drawn)	i	.	9.4	5.6	.	-1.8	0.8	3.7	.
CCOC(=O)/C(=N/Nc1ccc(Cl)cc1)Sc1nnnn1-c1ccc(C)cc1	.	-1.4	.	.	-1.4%	.	-0.2	.	.
COC(=O)[C@H](Cc1ccccc1)NC(=O)NCc1cccs1	.	-2.4	.	.	7.5%	.	0.7	.	0.735
CS(=O)(=O)c1ccc(C(=O)N2CCc3ccccc3C2)cc1	i	.	10.6	3.2	6.9%	-0.9	0.2	-7.3	0.709
CCN(CC)CCOC(=O)c1ccc(Cl)cc1Cl	i	.	16.5	7.7	6.5%	-11.3	-3.4	-1.4	0.686
Cc1cc(-c2cccnc2)c(C#N)c(SCC#N)n1	i	.	13.3	2.4	-15.8%	-4.1	0.6	-13.1	0.719
CCOc1ccc2c(c1)c1nnc(SCC3CCCO3)nc1n2C (stereo not drawn)	.	.	.	.	-9.2%	.	1.6	.	0.676
O=S(=O)(Cc1ccccc1)NC1c2ccccc2Oc2ccccc21	i	.	.	.	3.8%	.	-0.2	-3.5	0.681
COc1ccc(Cl)cc1C(=O)NNC(=O)c1ccc(F)c(S(=O)(=O)N2CCOCC2)c1	i	0.4	-9.2	-7.2	-8.8%	-0.7	-3.0	-2.9	0.724
Cc1cc(=O)n(C(C)(C)C)c(=O)n1Cc1ccccc1	i	1.3	2.1	3.2	-7.5%	0.2	-0.5	1.1	0.655
COc1ccc2c3c(n(C)c2c1)[C@H](CO)N(C(=O)C1CC1)CC31CCN(C)CC1	i	.	9.1	1.6	.	-1.2	.	-5.4	.
CCC(=O)NC[C@@H]1[C@H](c2ccc(C3=CCCC3)cc2)[C@@H](CO)N1C(C)=O	i	.	-2.3	-0.8	.	-3.6	.	17.6	.
Cc1c(N(CC(=O)O)S(=O)(=O)c2ccccc2)c(=O)n(-c2ccccc2)n1C	i	-4.1	-0.1	-0.8	.	-2.7	-2.0	-0.9	0.632
O=C(Nc1ccc(F)cc1)c1cccc2c1C(=O)N(CC1CCCO1)C2 (stereo not drawn)	i	-6.4	8.9	11.6	.	2.6	-6.0	0.6	0.692
CCC(C)/C(C)=N/NC(=O)CNS(=O)(=O)c1ccc([N+](=O)[O-])cc1 (stereo not drawn)	i	1.2	15.7	14.4	12.4%	1.6	2.5	-1.3	.
O=C(CN1CCOCC1)N1CC[C@@H]2[C@H]1c1cc(-c3ccccc3)ccc1N[C@@H]2CO	i	.	9.6	2.6	.	0.2	.	1.3	.
COc1ccc(Sc2nnc(-c3ccccc3)cc2C#N)cc1	.	0.3	.	.	-0.6%	.	0.1	.	0.68
Cc1cccc(C)c1-n1c(C)cc(/C=N/NC(=O)c2ccncc2)c1C	.	3.0	.	.	2.8%	.	-0.7	.	.
O=[N+]([O-])c1cc(S(=O)(=O)NCCCN2CCOCC2)ccc1Cl	.	-11.7	.	.	8.3%	.	1.0	.	0.705
O=C(C[C@H]1C[C@@H]2c3cc(NC(=O)CC4CC4)ccc3O[C@@H]2[C@@H](CO)O1)NCc1ccccc1	i	.	3.0	-0.9	.	-0.3	.	-1.2	.
C[C@@H]1CN([C@@H](C)CO)S(=O)(=O)c2ccc(C#CC3CCCC3)cc2O[C@@H]1CN(C)C(=O)Cc1ccccc1	i	.	4.6	2.9	.	0.9	.	1.0	.
CCC(=O)/C=C1/Sc2ccc(OC)cc2N1CC	i	76.7*	-3.1	-12.2	-12.4%	5.4	-0.3	7.6	0.696
Cc1sc(NC(=O)c2ccccc2F)c(CN2CCCCC2C)c1C (stereo not drawn)	i	30.2	7.9	9.9	4.2%	-7.7	-1.8	-0.1	0.693
CCOC(=O)c1cc2sccc2n1Cc1ccc(C#N)cc1	.	-7.2	.	.	0.7%	.	2.1	.	0.678
CC(C)OCCCNC(=O)c1cccc2c1C(=O)c1ccc(Cl)cc1S2(=O)=O	i	-1.8	10.0	11.7	.	-1.2	3.4	-11.3	0.737
Cc1ccc(NC(=O)c2cccc(S(=O)(=O)Nc3c(C)n(C)n(-c4ccccc4)c3=O)c2)cc1C	i	.	-15.8	1.0	.	15.2	.	-0.3	.
Cn1c(CN2CCN(C(=O)c3ccccc3)CC2)nc2cc([N+](=O)[O-])ccc21	i	-7.1	5.5	6.9	.	-0.2	-1.6	-0.3	0.705
COc1cc(CNc2ncnc3c2[nH]c2ccc(C)cc23)cc(OC)c1	.	48.4	-27.9	-14.4	11.9%	23.8	5.7	2.7	0.608
O=C(CSc1nc2cc(Cl)ccc2s1)NC1CCCc2ccccc21 (stereo not drawn)	.	-20.0	.	.	.	.	0.4	.	0.711
CCN1CCN(C(CNS(=O)(=O)c2ccc(F)cc2)c2cccnc2)CC1 (stereo not drawn)	i	1.0	-2.6	1.1	-5.7%	0.5	-2.7	3.0	0.721
O=C(N[C@@H]1CC[C@@H](CCn2cc(-c3ccccn3)nn2)O[C@H]1CO)c1ccc(F)cc1	i	.	4.0	0.6	.	-2.3	.	-2.5	.
CCNc1nc(SCC(N)=O)nc2sc3c(c12)CCN(C)C3	i	.	5.1	9.9	13.0%	8.0	-2.7	-0.9	0.675
CC(C)(C)OC(=O)C[C@@H]1C/C=C\C[C@H](CC(=O)NCCO)C(=O)N[C@@H](c2ccccc2)COC1=O	i	5.0	-10.4	-4.3	.	9.2	0.2	-1.7	.
COc1ccc(Br)cc1S(=O)(=O)N(CC(=O)N1CCOCC1)c1ccccc1	.	0.9	.	.	?	.	-2.1	.	0.631
CCc1nnc(NC(=O)CCC(=O)N2CCN(Cc3ccc(C)cc3C)CC2)s1	i	-0.2	-0.8	6.3	.	0.3	3.3	0.8	0.7
COc1cccc(-n2nc(-c3ccnn3-c3ccc(C)cc3)c(=O)n(C)c2=O)c1	.	-5.9	.	.	4.9%	.	5.2	.	0.722
COc1cc(CC(=O)Nc2ccc3nc(SC)sc3c2)cc(OC)c1OC	i	.	-1.8	-15.5	-4.5%	-1.1	2.4	1.0	0.659

The final 2 entries of the section above open the next one:
mol	FGF22 binding	ALR H2O2 inh	rRNA inh HTS OD600	rRNA inh HTS	Vif TR-FRET	rRNA inh HTS RFP	HNF4A DNA FP	AF4-AF9 inh	E coli growth
COc1cccc(-n2nc(-c3ccnn3-c3ccc(C)cc3)c(=O)n(C)c2=O)c1	.	-5.9	.	.	4.9%	.	5.2	.	0.722
COc1cc(CC(=O)Nc2ccc3nc(SC)sc3c2)cc(OC)c1OC	i	.	-1.8	-15.5	-4.5%	-1.1	2.4	1.0	0.659
CCNc1ccc(S(=O)(=O)N2CCOCC2)cc1NCC(=O)Nc1cccc(Br)c1	i	.	-10.1	-9.8	.	-1.2	3.7	-1.7	.
N#Cc1ccc(S(=O)(=O)N2CCCN(c3nc4ccc(Cl)cc4s3)CC2)cc1	i	-5.9	3.6	20.2	-1.0%	0.4	-0.2	-5.0	0.633
CC(=O)N1CCN(c2ccc(NC(=O)c3ccc(C)cc3)cc2)CC1	.	-14.6	.	.	-3.0%	.	-1.0	.	0.696
COCC(=O)Nc1ccc2c(c1)[C@H]1C[C@H](CC(=O)NCC3CC3)O[C@@H](CO)[C@H]1O2	i	.	-8.6	1.7	.	-0.9	.	0.3	.
CCc1cc2c(nc1CC)CCCN2S(=O)(=O)c1cccs1	i	.	-64.0	-37.5	.	-11.3	.	-3.7	.

A draw from above in order of formula weight, descending:
mol	FGF22 binding	ALR H2O2 inh	rRNA inh HTS OD600	rRNA inh HTS	Vif TR-FRET	rRNA inh HTS RFP	HNF4A DNA FP	AF4-AF9 inh	E coli growth
CCNc1ccc(S(=O)(=O)N2CCOCC2)cc1NCC(=O)Nc1cccc(Br)c1	i	.	-10.1	-9.8	.	-1.2	3.7	-1.7	.
CC(C)(C)OC(=O)C[C@@H]1C/C=C\C[C@H](CC(=O)NCCO)C(=O)N[C@@H](c2ccccc2)COC1=O	i	5.0	-10.4	-4.3	.	9.2	0.2	-1.7	.
COc1ccc(Br)cc1S(=O)(=O)N(CC(=O)N1CCOCC1)c1ccccc1	.	0.9	.	.	?	.	-2.1	.	0.631
N#Cc1ccc(S(=O)(=O)N2CCCN(c3nc4ccc(Cl)cc4s3)CC2)cc1	i	-5.9	3.6	20.2	-1.0%	0.4	-0.2	-5.0	0.633
COCC(=O)Nc1ccc2c(c1)[C@H]1C[C@H](CC(=O)NCC3CC3)O[C@@H](CO)[C@H]1O2	i	.	-8.6	1.7	.	-0.9	.	0.3	.
COc1cccc(-n2nc(-c3ccnn3-c3ccc(C)cc3)c(=O)n(C)c2=O)c1	.	-5.9	.	.	4.9%	.	5.2	.	0.722
CCc1cc2c(nc1CC)CCCN2S(=O)(=O)c1cccs1	i	.	-64.0	-37.5	.	-11.3	.	-3.7	.

An excerpt; count on the stated rates, not on these rows.
